# Screening results as filed in PubChem.
# BJeLR lethal: kills HRASV12-expressing BJeLR cells | BJeLR (HRASV12) viability, CellTiter-Glo ATP luminescence, 48 h; reference of the scale not given here | inhibition, % (test concentration not listed) | hit rate 0.17% among 300,000;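 active = replicate mean above 50%; inconclusive = above 50% but judged a plate artefact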;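 note: 50 nL library stock added to about 25 µL; numbers are from one replicate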
# Mtb hypoxia inh: inhibitors of hypoxia-regulated fluorescent reporter in Mycobacterium tuberculosis; fluorescence inhibition, % (test concentration not listed); hit rate 0.1% among 300,000; M. tuberculosis hypoxia-regulated fluorescent reporter, fluorescence;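 active = 35 to 45% if threefold the growth effect, above 45% if 1.5-fold the growth effect; inactive = the rest, general growth blockers included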;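 note: wells of about 50 µL received 100 nL stock; 0% = vehicle wells and 100% = reference inhibitor wells; whole bacteria with a GFP reporter of the hypoxia response; strong numbers were not always called active; many hits fall short of the cut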
# PrP UTR inh: suppresses PrP 5' UTR mRNA reporter expression. cell-based PrP 5' UTR mRNA reporter, plate reader. inhibition, % (test concentration not listed). hit rate 0.35% among 340,000. AID 488862;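 active = every replicate at 50% or more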;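 note: 0 = median of the neutral control wells; tested in H4 reporter cells; numbers are from one replicate; inactives centre near -14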
# Bead autofluor: counter-screen for toxin protease inhibitors: compound fluorescence; fluorescence intensity (concentration not given with the values); compound autofluorescence counterscreen, microsphere flow cytometry; active compounds read high; AID 624483; hit rate 3.1% among 360,000;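 active = at least 3 SD above the mean of all compounds, about 16000 in these data; inconclusive = too few beads counted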;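 note: 100 nL of 1 mM stock went into each well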
# ugtP null kill: compounds lethal to S. aureus RN4220 ugtP deletion mutant | hit rate 0.54% among 330,000 | OD600 growth, 16 h; some inactives read as strong as hits | growth inhibition, % (no concentration beside the values);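 active = z-score under -3 and OD600 up to 0.15 on both plates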;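 note: plate controls were untreated wells for no effect and antibiotic for full effect; wells of about 80 µL received 100 nL stock; the first replicate is given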
# Sa RN4220 lethal: kills Staphylococcus aureus RN4220; S. aureus RN4220 growth, OD600, 16 h; inhibition, % (test concentration not listed); hit rate 0.33% among 330,000;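 active = z-score of -3 or lower and OD600 up to 0.18 on both plates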;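 note: plate controls were untreated cells for no effect and reference antibiotic for full effect; stock transfer was 100 nL into about 80 µL; one replicate is shown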
# Mtb hypoxia inh growth: second read-out of Mtb hypoxia inh, no call of its own (marks repeat the call); growth inhibition, %; measured here: M. tuberculosis growth (absorbance);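 0% = vehicle and 100% = reference antibiotic; read after six days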
# Active calls of the source: *; u = inconclusive; x = no result given; & = joins results of further samples.
SMILES,BJeLR lethal,Mtb hypoxia inh,Mtb hypoxia inh growth,PrP UTR inh,Bead autofluor,ugtP null kill,Sa RN4220 lethal
CN(CCc1cnn(C)c1)Cc1nc(CC2CC2)no1,13.9,5.4,9.7,-14.2,4440,5.7,2.3
O=C1CC(c2ccccc2)CC(O)=C1C=NCCc1ccccc1 (stereo unspecified),14.0,7.2,14.0,-103.3,4615,5.3,12.6
CSc1ncccc1C(=O)OCn1nnc2ccccc2c1=O,-9.6,17.2,9.7,-25.8,4548,-5.4,5.2
C=CCn1c(SCC(=O)N(CC)C2CCS(=O)(=O)C2)nc2sc3c(c2c1=O)CCC3 (stereo unspecified),x,2.2,-3.2,1.7,7841,-2.9,1.6
COc1ccc2c(-c3ccccc3)cc(SC(C)C(N)=O)nc2c1 (stereo unspecified),5.8,5.4,1.6,-14.6,4382,-22.6,2.4
COc1ccc(N2CCCC2=N)c(OC)c1,-1.0,-3.3,4.5,-15.0,5495,1.8,3.0
COc1ccc(CC(=O)NNC(=O)c2cccnc2)cc1OC,-6.5,9.4,7.3,-26.0,2460,2.4,3.8
Cc1ccc(OCC(=O)Nc2ccc(N3CCN(S(C)(=O)=O)CC3)cc2)c(C)c1,3.0,16.1,5.7,-10.3,4664,5.3,-6.0
COCCNC(=S)NN=C(C)c1ccc(-n2ccnc2)cc1,x,3.0,16.2,x,x,1.2,2.8
CCOC(=O)c1ccc(N2C(=O)CC(N3CCC(O)(c4ccc(Cl)cc4)CC3)C2=O)cc1 (stereo unspecified),2.1,-0.6,3.8,-2.9,3171,-2.7,4.9
CC(=O)NC(Cc1ccc(C)cc1)C(=O)NC1CCN(C(=O)c2cnccn2)CC1 (stereo unspecified),-9.6,-0.4,-2.2,-22.7,10561,1.8,2.1
NS(=O)(=O)c1ccc(CCNC(=O)CNC(=O)COc2ccccc2)cc1,-1.2,-1.4,-4.3,x,3250,6.1,-0.6
C=CCn1c(C(C)NC(=O)c2ccc(C)cc2)n[nH]c1=S (stereo unspecified),-5.7,8.0,7.4,-3.4,2590,3.6,-2.0
COc1cccc(NC(=O)CN2C(=O)NC(C)(CC(C)C)C2=O)c1 (stereo unspecified),3.7,10.2,-6.8,-19.3,3867,2.2,3.5
CCc1nnc(NC(=O)CSc2nnc3scc(-c4ccc(C)cc4)n23)s1,-1.3,-1.9,-5.3,-7.8,21013*,-1.3,0.4
O=C(NCC(=O)N1CCN(c2ncccn2)CC1)c1ccccc1OC(F)F,x,4.2,8.4,-15.8,3958,6.4,4.9
O=C(Nc1ccc(C(=O)N2CCCC2)cc1)c1ccccc1Br,-21.1,1.4,-1.5,-2.2,4391,-6.8,0.4
CC(Cn1nnc2ccccc21)=NOC(=O)c1cc(F)c(F)cc1Cl,x,10.0,8.8,x,x,9.7,2.7
COCCNc1cc(C)nc2ccccc12,3.9,x,x,-7.6,3661,8.1,1.1
OCCC1CC(O)C(O)[C@]2(CCc3ccccc3O2)O1 (stereo partly specified),x,-0.6&-2.7&5.7&16.5,-4.3&9.0&9.9&3.6,x,x,-4.4&4.0&2.8&2.4,3.3&6.7&6.6&1.4
COc1cccc(NC(=O)CCCCCn2nnc3ccccc3c2=O)c1,-2.3,3.6,5.6,-0.2,3779,3.5,1.6
CC(=O)c1c(C)[nH]c(C(=O)OCC(=O)N2CCc3ccccc3C2)c1C,x,0.7,3.0,-6.2,5768,1.2,1.7
[O-][n+]1c2c(nn1-c1ccccc1)/C(=N/O)CCC2,14.4,x,x,-17.2,2504,x,x
Cc1cc(C(=O)Nc2cccc3c2OC(CN(C)S(=O)(=O)c2ccccc2)C(C)CN(C(C)CO)C3=O)n(C)n1 (stereo unspecified),x,5.4,9.4,x,x,1.0,9.5
CCOC(=O)Cc1cc(=O)n2[nH]c(C)c(C#N)c2n1,-3.6,-1.1,-1.9,-15.4,7502,5.8,4.3

# Record cards (already shown):
# `CC(=O)c1c(C)[nH]c(C(=O)OCC(=O)N2CCc3ccccc3C2)c1C` is entered as BJeLR lethal = x; Mtb hypoxia inh = 0.7; Mtb hypoxia inh growth = 3.0; PrP UTR inh = -6.2; Bead autofluor = 5768; ugtP null kill = 1.2; Sa RN4220 lethal = 1.7
# `COc1ccc(N2CCCC2=N)c(OC)c1` is entered as BJeLR lethal = -1.0; Mtb hypoxia inh = -3.3; Mtb hypoxia inh growth = 4.5; PrP UTR inh = -15.0; Bead autofluor = 5495; ugtP null kill = 1.8; Sa RN4220 lethal = 3.0

# The listing continues.
SMILES,BJeLR lethal,Mtb hypoxia inh,Mtb hypoxia inh growth,PrP UTR inh,Bead autofluor,ugtP null kill,Sa RN4220 lethal
CN(Cc1ccc(Cl)c(Cl)c1)C(=O)C1CSC2(C)CCC(=O)N12 (stereo unspecified),x,10.5,6.5,0.4,3435,4.1,2.6
O=C(CN1C(=O)c2ccccc2C1=O)OCc1nc2ccsc2c(=O)[nH]1,x,1.8,3.9,2.0,5529,-2.7,2.1
CCCOc1ccc(-c2c(C(=O)N/N=C/c3ccco3)nnn2-c2nonc2N)cc1,-0.6,x,x,-7.8,5360,x,x
CCOc1ccccc1NC(=O)COc1ccc2ccc(=O)oc2c1,4.0,-1.5,-1.8,-4.5,3207,1.9,4.7
O=C(O)c1cccc2c1-c1c(cccc1[N+](=O)[O-])C2,x,2.0,3.8,4.9,3674,3.9,7.8
Cc1ccc(N=Nc2ccc(O)cc2)c(Br)c1,20.0,14.4,2.7,-38.5,2679,79.5,6.3
CCCCC(=O)Nc1cc(NC(=O)CCCC)cc(C(=O)O)c1,2.1,2.3,7.9,-3.5,6865,4.0,1.2
CCn1c(SCC(=O)N2CCC(C(N)=O)(N3CCCCC3)CC2)nc2ccccc2c1=O,x,1.7,1.4,-9.2,2432,-2.4,-17.8
COC(=O)C(O)(c1ccc(N(C)S(=O)(=O)c2ccccc2)cc1)C(F)(F)F (stereo unspecified),-5.1,17.5,8.9,-12.0,4916,3.6,3.3
O=C1N[C@H](Cc2ccccc2)CO1,5.2,x,x,-6.7,3811,x,x
CC(=O)n1nc(-c2cccnc2)nc1N,-10.7,-18.9,-7.6,-12.9,4482,-9.0,-4.7
CCN(CC)S(=O)(=O)N1CCC(C(=O)NC2CCCc3ccccc32)CC1 (stereo unspecified),7.3,3.1,15.8,-2.2,20617*,-3.2,1.9
Cc1cc(=O)n2[nH]c(C(F)(F)F)c(-c3ccccc3)c2n1,2.5,11.2,-0.8,-12.9,3756,6.9,0.7
COc1ccc(-n2c(=O)cc(N3CCN(c4ccccc4F)CC3)[nH]c2=O)cc1,x,-2.1,7.3,-19.6,10027,1.2,2.1
CCn1c(=O)c([N+](=O)[O-])c(NCc2ccc3c(c2)OCO3)c2ccccc21,3.2,7.9,12.6,-6.3,4255,0.0,5.5
Cc1cc(C)c2cc(C(=O)N(C)C3CCN(C)CC3)[nH]c2c1,2.8,2.6,11.4,10.4,x,8.3,2.0
CCC(CC)C(=O)Nc1cccc(/C(C)=N/NC(=O)c2ccccc2Cl)c1,-3.5,x,x,-9.5,4682,x,x
CCn1c(SCC(=O)N2CCCCC2C)nc2ccsc2c1=O (stereo unspecified),1.2,1.6,0.1,-1.7,7945,4.1,2.0
CNC(=O)C(=O)NCCN1CCN(C(=O)c2ccc([N+](=O)[O-])cc2)CC1,4.7,0.7,-1.5,-16.0,2770,-1.3,4.2
COc1ccc(Nc2nc(N)nc(CSc3n[nH]c(-c4ccccc4)n3)n2)cc1,4.4,x,x,-15.8,3459,-5.7,2.8
CCOc1ccc(CNc2nc3ccccc3n2CCN2CCOCC2)cc1,0.2,-2.6,15.2,5.1,2384,-6.0,-1.1
O=C(NN=C/C=C/c1ccco1)C1COc2ccccc2O1 (stereo unspecified),x,12.4,11.9,x,x,-0.3,-1.1
O=C(Nc1ccc(NC(=O)c2ccco2)nc1)c1ccccn1,7.9,x,x,-31.7,x,-9.1,-0.1
O=c1c2cnn(-c3ccccc3)c2ncn1Cc1ccco1,-4.5,x,x,-26.2,2302,12.3,-0.8
CCCOc1ccc(N2CC(C(=O)NC3=NCCS3)CC2=O)cc1 (stereo unspecified),-2.4,6.8,1.1,-27.2,3407,0.5,3.8

# Only ugtP null kill (two entries from above):
structure	ugtP null kill
O=C(CN1C(=O)c2ccccc2C1=O)OCc1nc2ccsc2c(=O)[nH]1	-2.7
COc1ccc(-n2c(=O)cc(N3CCN(c4ccccc4F)CC3)[nH]c2=O)cc1	1.2

# (continued)
SMILES,BJeLR lethal,Mtb hypoxia inh,Mtb hypoxia inh growth,PrP UTR inh,Bead autofluor,ugtP null kill,Sa RN4220 lethal
CCC(=O)Nc1ccc(S(=O)(=O)Nc2ncccn2)cc1,-14.6,11.6,13.2,-3.8,7498,-1.5,-1.4
CCn1nc(C)cc1C(=O)Sc1ccc(Cl)cc1Cl,-4.4,-4.6,-14.9,-75.4,x,95.9*,23.7
CCCCCCCn1c2c(c(=N)c3ccccc31)CCC2,15.8,6.3,18.7,-28.1,u,88.7*,25.0
COc1ccc(C(=O)Nc2ccccc2)cc1NC(=O)c1ccc([N+](=O)[O-])cc1,0.3,5.5,7.0,-8.8,4188,-1.5,4.5
CNC(=O)NN=C(N)c1ccccn1,x,-2.3,1.6,x,x,4.7,4.1
Cc1ccc(-n2c(Cc3cccc4ccccc34)n[nH]c2=S)c(C)c1,6.5,11.9,-0.5,-22.0,3203,2.6,11.4
FC(F)(F)c1cc(-c2cccs2)nc2nc(N3CCOCC3)sc12,10.7,-1.1,7.7,-18.5,3300,1.5,0.7
CCOc1ccc(NC(=O)C2CCCN(S(C)(=O)=O)C2)cc1 (stereo unspecified),-12.0,-3.2,-3.0,5.5,3758,-0.2,-1.6
CCCCOC(=O)C1=C(C)Nc2ncnn2C1c1cccc(OC)c1OC (stereo unspecified),4.9,10.3,6.7,-24.2,u,-7.2,5.0
COC(=O)c1ccc(N2C(=O)CC(SCC(=O)Nc3ccc(OC)cc3)C2=O)cc1 (stereo unspecified),-3.6,-5.1,4.8,-23.0,4598,2.9,10.9
COc1ccc(CCNC(=O)[C@H](C)N2C(=O)N3CCc4c([nH]c5ccccc45)[C@@]3(C)C2=O)cc1OC,-5.4,x,x,-3.7,5762,2.5,-1.7
COc1ccc(CC(NC(C)=O)C(=O)NC2CCN(C(=O)c3cccc(Cl)c3)CC2)cc1OC (stereo unspecified),-11.0,-13.1,-13.3,1.7,3615,2.9,3.1
COc1ccc(Nc2nc(Cl)nc(N3CCN(c4ccc(OC)cc4)CC3)n2)cc1,1.2,-5.4,11.6,x,x,12.2,3.7
CCN(C(=O)CSc1nnc(-c2cccs2)n1CC)C1CCS(=O)(=O)C1 (stereo unspecified),2.9,7.7,4.5,-18.0,5461,14.1,3.4
COc1ccc(S(=O)(=O)Nc2cc(OC)c(NC(=O)c3ccco3)cc2OC)cc1,-5.1,-1.3,3.3,-17.3,9199,-1.2,3.6
COc1ccc(OC)c(S(=O)(=O)n2ccnc2C)c1,-14.2,13.9,6.0,-15.6,4194,-0.2,8.3
CCCn1c(C)c(C(=O)c2cccc3ccccc23)c2ccccc21,x,2.1,0.8,-19.0,4443,-7.0,-1.6
Cc1ccc(C=NNc2ccc(C(=O)O)cc2)o1,x,12.8,3.3,x,x,8.1,4.0
CC(NC(=O)CN(C)S(=O)(=O)c1ccc(Br)s1)c1ccccc1 (stereo unspecified),-6.8,-8.2,-4.8,-14.7,3527,0.9,1.4
CCC(=NOC(=O)c1cccc(C)c1)C(=O)c1cccs1,x,10.1,0.5,x,x,-0.7,3.9
COC(=O)C1CCN(C(=O)NC2CCCCC2)CC1,-0.8,2.8,5.1,-26.4,9471,3.1,4.1
N#CC(=NNc1cccc(Cl)c1)C(=O)c1ccccc1,x,4.4,2.7,x,x,100.0*,100.1*
O=C(CN1C(=O)c2ccccc2S1(=O)=O)N1CCN(c2ccccc2F)CC1,-2.8,x,x,-25.9,3776,3.9,0.7
CCCSc1nnc(N2C(=O)C(O)=C(C(=O)c3ccco3)C2c2ccccc2F)s1 (stereo unspecified),-3.1,-6.6,-4.1,-12.9,5722,4.2,12.4
Cc1ccc(NC(=O)[C@H](NC(=O)[C@@H]2Cc3ccccc3CN2)c2ccccc2)c(C)c1,9.3,-0.1,5.2,-8.9,5620,-2.3,0.7
O=C(Nc1ccc2c(c1)OCCO2)c1c(F)cccc1F,5.0,6.4,8.8,-90.6,20165*,1.9,4.9
CCn1c(SCC(=O)N2CCN(c3ccc(F)cc3)CC2)nnc1-c1ccncc1,-13.7,-0.9,0.9,4.8,20103*,2.6,1.6
